Compound activity from PubChem.
HPGD block – HPGD (human) dehydrogenase inhibition. Potency, µM, for inactives: at the highest dose activity change, negative = inhibition, usual class: inhibitors. AID 894. P15428. purified HPGD, NADH fluorescence kinetic, PGE2 substrate. 150,000 tested, 4.3% active; active = well fitted inhibition curve with a large enough effect (not every such curve was filed as active); inconclusive = small, poorly fitted or top-dose-only effect, or another doubt; inactive = no such curve, though single readings can be large or run the other way;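 also: top concentration of the series not given in the record; plate controls included wells without enzyme; inactives centre near -10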
Target sequence (P15428 whole entry, looked up): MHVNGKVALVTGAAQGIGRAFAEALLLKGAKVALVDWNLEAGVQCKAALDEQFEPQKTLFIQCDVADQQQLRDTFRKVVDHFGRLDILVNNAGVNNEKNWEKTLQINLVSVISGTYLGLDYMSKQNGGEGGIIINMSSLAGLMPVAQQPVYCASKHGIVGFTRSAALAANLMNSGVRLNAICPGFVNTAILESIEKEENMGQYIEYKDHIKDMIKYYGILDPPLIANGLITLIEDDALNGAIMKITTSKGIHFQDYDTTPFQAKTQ
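NADH formation kinetics: reaction with 30 uM PGE2 and 1 mM NAD+ (final), 20 nM enzyme, Tris-HCl pH 8 with Tween 20, after 15 min compound preincubation at room temperature. Fluorescence change, last versus first of five reads.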
Numbers without * were called inactive; u = inconclusive. % is scaled to controls: 0 for no effect and ±100 for the full control effect; potency is read from the fitted curve at half-maximal effect.

HPGD block,SMILES
-9%,COc1cc(-c2nc3n(n2)C(c2ccncc2)C(C(N)=O)=C(C)N3)cc(OC)c1OC (configuration not stated)
u,Cc1nc2ccc(NC(=O)N3CCCCC3)cc2nc1C
-4%,COC(=O)Nc1ccccc1C(=O)N1CCC(O)(c2ccc(Cl)cc2)CC1
-1%,Cc1ccc(S(=O)(=O)N(c2nc(NC(C)C)nc(NC(C)C)n2)n2cnnc2)cc1
-6%,O=C(Nc1ccccc1C(F)(F)F)C1CC(=O)N(c2ccccc2F)C1 (configuration not stated)
-16%,COc1ccc(OC(C)C(=O)N2CCN(c3ccccn3)CC2)cc1 (configuration not stated)
3.2µM*,O=C(Cc1ccc2c(c1)CCCC2)Nc1ccccc1Cl
u,Cc1cccc(Cn2c(=O)n(Cc3ccco3)c(=O)c3ccccc32)c1
-18%,O=C(Nc1cccc(F)c1)N1CCCC2(CCN(C(=O)c3ccco3)CC2)C1
-10%,COc1cc(/C=N/N(C)c2ccccc2)cc(Cl)c1O
-14%,O=C(Nc1ccccc1)N1CC=C(c2ccccc2)CC1
u,CC(=O)N1C(=O)c2cccc3cccc(c23)C(=O)N1C(C)=O
0%,CN(C(=O)COC(=O)c1cc(NS(=O)(=O)c2cc([N+](=O)[O-])ccc2Cl)ccc1O)C1CCCCC1
u,COc1ccc(-c2cc(C(F)(F)F)nc(S(C)(=O)=O)n2)cc1
-17%,CCOc1ccc2ncc(S(=O)(=O)c3ccccc3)c(N3CCC4(CC3)OCCO4)c2c1
0%,N#Cc1ccsc1NC(=O)CSc1nnc(-c2ccccc2)o1
u,CC(C)Cc1nc2oc3c(=O)[nH]cnc3c2c2c1CCCC2
4%,Cc1nn(Cc2c(F)c(F)c(F)c(F)c2F)c(C)c1NC(=O)c1ccc(COc2ccc(F)cc2)o1
-2%,COC(=O)c1ccc(COc2ncnc3c(Cl)cc(Cl)cc23)o1
2%,COc1ccc(C(=O)NC(=S)Nc2ccc3oc(=O)ccc3c2)cc1OC
1%,Cc1cc(C)n(C(CC(=O)N2CCc3ccccc3C2)C(=O)O)n1 (configuration not stated)
-12%,COCCNS(=O)(=O)c1ccc(F)c(OC)c1
-7%,CCOC(=O)c1c(C)c(C(=O)NCCN2CCOCC2)c(C)n1C
-20%,CC1CCCN(S(=O)(=O)c2ccc(S(=O)(=O)NC(C)c3cccs3)cc2)C1 (configuration not stated)
-22%,Cc1ccc(N=Nc2c(N)[nH]n3c(=O)cc(-c4ccccc4)nc23)cc1
u,O=C(Nc1ccc(Oc2cccnc2)cc1)c1ccccc1F
u,COC(=O)C1=C(C)Nc2c(c(=O)n(C)c(=O)n2C)C1c1ccc(Cl)cc1 (configuration not stated)
-16%,CCc1ccc(N/C(SCc2ccccc2C)=C(/C#N)C(=O)NCc2ccco2)cc1
u,Cc1ccc2ncc(NC(=O)c3ccc(F)cc3)c(=O)n2c1
-1%,Cc1[nH]nc2c1C(=O)CC(C)(C)C2
-7%,CCOC(=O)CN1C(=O)N(CC)C(C)=C(C(=O)OC)[C@@H]1c1ccccc1
-11%,CCCCS(=O)(=O)NC1=NCN(Cc2ccco2)CN1
-11%,COC(=O)C1(C(=O)OC)NOC2C(=O)N(c3ccc(Cl)cc3Cl)C(=O)C21 (configuration not stated)
-8%,Cc1cccc(NC(=O)c2cn(-c3ccccc3)nc2-c2ccccc2)c1
-14%,CCN(CC)CCOC(=O)c1ccc(NC(=O)CCNC(=O)Cn2ccc3ccccc3c2=O)cc1
-6%,CN(Cc1ccccc1)C(=O)C1CCCN(Cc2ccc(Cl)cc2)C1 (configuration not stated)
-13%,COc1ccc(N2C(=O)CC(S/C(N)=N/N=C(\C)c3cccs3)C2=O)cc1 (configuration not stated)
-14%,O=C(N1CCCCCC1)N1CCN(C(=O)N2CCOCC2)CC1
22µM*,O=C1OC(NC(=O)c2ccccc2)C(n2cc(CO)nn2)=C1Cl (configuration not stated)
-14%,O=C(NCc1cccs1)c1ccc([N+](=O)[O-])cc1
2%,Cc1ccc(Cl)cc1N1CCN(C(=O)CN(C2CCCCC2)S(C)(=O)=O)CC1
-25%,Cc1ccc(Cn2c(SCC(C)C)nc3c2c(=O)n(C)c(=O)n3C)cc1
-14%,C[C@H](NC(=O)c1ccccc1Cl)C(=O)OC(C(=O)Nc1cc(C(F)(F)F)ccc1Cl)c1ccccc1 (some centres not stated)
-7%,CCCn1c(SCC(=O)NCCc2ccccc2)nnc1-c1ccccn1
u,Cc1cnc(NC(=O)c2cc3c(C)nn(-c4ccccc4)c3s2)s1
-1%,O=C(NCCO)C1CCN(S(=O)(=O)c2ccc(F)cc2)CC1
-25%,COc1ccc(NC(=O)CSc2nc3ccccc3c3nc4ccccc4n23)cc1
-4%,COc1cccc(NC(=S)N2CCN(Cc3ccccc3)CC2)c1
-6%,Cc1cc(C)nc(NC(=O)c2ccc(OC(C)C)cc2)n1
-14%,Cc1ccc(-c2csc(NC(=O)COc3ccc(N(C)S(=O)(=O)c4ccc(C)cc4)cc3)n2)cc1

Continuation:
HPGD block,SMILES
-4%,Cc1nc2ncnn2c(C)c1CCC(=O)NC(C)CCc1ccco1 (configuration not stated)
-10%,O=C(CSc1nnnn1-c1ccc(F)cc1)NC1CCCCC1
-8%,CC(=O)c1ccc[nH]1
-29%,COc1ccc(-c2nc(CSCC(=O)NCC3CCCO3)c(C)o2)cc1OC (configuration not stated)
-27%,CC(C)OCCCNC(=O)c1ccc2c(c1)ncn2C1CCCC1
1%,O=C(/C=C/c1ccccc1)Nn1cnnc1
u,CC1CCC/C(=C\Nc2ccc(O)cc2)C1=O (configuration not stated)
-9%,Cc1ccc(Cc2cnc(NC(=O)c3cccs3)s2)cc1
-6%,COc1cc(C)nc(N(C)C(C)=O)n1
-6%,COc1cccc(-c2nc(CS(=O)(=O)CC(=O)NCCC(C)C)c(C)o2)c1
-4%,COCCNC(=O)C(c1ccccc1)N(CCOC)C(=O)Cn1nnc2ccccc21 (configuration not stated)
-7%,CCOC(=O)C1=C(c2ccccc2)N(C)C(=O)NC1c1ccc(OC(F)F)c(OC)c1 (configuration not stated)
-11%,Cc1ccc(S(=O)(=O)N2CCN(C(=O)CC3CCCC3)CC2)cc1
-17%,COc1cc(C(=O)Oc2ccccc2/C=N/NC(=O)c2ccc(Cl)cc2)cc(OC)c1OC
-4%,O=C(Nc1ccccc1Cl)c1ccccc1S(=O)(=O)c1ccccc1[N+](=O)[O-]
-6%,CC1(C)CC(=O)CC(C)(C)N1OC(=O)c1ccccn1
-22%,COCCCNC(=O)c1c(N)n(/N=C/c2cccnc2)c2nc3ccccc3nc12
u,CCOc1cc(/C=C2/C(=N)N3OC(C)=CC3=NC2=O)ccc1OCCOc1ccccc1
-9%,NC(=O)c1oc2ccccc2c1NC(=O)c1ccco1
-11%,CC1CCCCC1NC(=O)C1CCN(C(=O)c2sccc2-n2cccc2)CC1 (configuration not stated)
-2%,CCCn1c(SCC(=O)NCCc2ccccc2)nnc1-c1cccnc1
1%,COC(=O)[C@H]1C[C@@H]1[C@H](NC(=O)c1cc(C)nn1C)c1ccccc1
25µM*,O=C(Nc1nccs1)c1ccc(Br)o1
-14%,C=CCn1cnc2scc(-c3ccccc3)c2c1=O
-8%,CCOCCCNS(=O)(=O)c1ccc2c(c1)oc(=O)n2CC(=O)OCC

Next part; it opens with the 3 that closed the last part.
HPGD block,SMILES
25µM*,O=C(Nc1nccs1)c1ccc(Br)o1
-14%,C=CCn1cnc2scc(-c3ccccc3)c2c1=O
-8%,CCOCCCNS(=O)(=O)c1ccc2c(c1)oc(=O)n2CC(=O)OCC
-10%,CS(=O)(=O)N1CCN(c2ccc(NC(=O)CSc3ccc(Cl)cc3)cc2)CC1
-2%,CCCCC1=CC2=CC(=O)C(C)(OC(=O)C3CCCC3)C(=O)C2=CO1 (configuration not stated)
-6%,CC(=O)NC(C(=O)O)C(C)(C)SN=O (configuration not stated)
-17%,O=C1CC(N(Cc2cccs2)C(=O)Nc2ccccc2)C(=O)N1c1ccc(Cl)cc1 (configuration not stated)
u,COC(=O)c1ccc(Cl)cc1NC(=O)/C=C/c1ccc(C)o1
-19%,Cc1nn(CC(O)COc2ccc3c(c2)CCC3)c(C)c1Br (configuration not stated)
-15%,CC/C(=N/O)c1cnnc(SC)n1
-10%,Cn1nc(-c2ccccc2)c(C(O)c2ccccc2C(F)(F)F)c1Cl (configuration not stated)
u,CCOc1ccc2nc(SCC(=O)c3ccc(Cl)s3)sc2c1
7.9µM*,CCOC(=O)c1sc(=S)n(-c2ccc3c(c2)OCO3)c1N
-23%,CC(=O)c1ccc(NC2OC(C)C(O)C(O)C2O)cc1 (configuration not stated)
-12%,CCOc1ccc(NS(=O)(=O)c2ccc3[nH]cc(C(=O)NC(C)CC)c(=O)c3c2)cc1 (configuration not stated)
-27%,COc1ccc2nc(C(F)(F)C(F)(F)F)c(C#N)c(N)c2c1
0%,O=C(CNC(=O)c1ccco1)NCCCc1ccccc1
u,COc1cccc(/C=C/C(=O)OCC(=O)Nc2ccc(S(=O)(=O)N3CCCC3)cc2)c1
-10%,COCc1nnc(NC(=O)c2ccc(S(=O)(=O)N(C)c3ccccc3)cc2)o1
-9%,Cc1csc(NC(=O)CSCC(=O)Nc2ccccc2)n1
-24%,CCOC(=O)Cn1nnnc1CN(Cc1ccc(OC)cc1)Cc1cc2cc(C)cc(C)c2[nH]c1=O
-7%,CCn1c(C(O)c2ccc(C)cc2)nc2ccccc21 (configuration not stated)
25µM*,O=C(/C=C/c1ccc(F)cc1)NCc1ccco1
-1%,CC(NS(=O)(=O)c1ccc(F)cc1)C(c1cccs1)N1CCOCC1 (configuration not stated)
-5%,O=c1c(-c2ccnn2-c2ccccc2F)cnc2n1CCS2
-22%,Cc1cccc(NC(=O)c2sc3nc4c(c(-c5ccco5)c3c2N)CCC4)c1
-25%,O=C(CSc1nnc(Cn2cnc3ccccc32)o1)c1ccccc1
3%,CCOC(=O)C1CCN(S(=O)(=O)c2ccc(OCC(=O)OC)cc2)CC1
-15%,O=C(N/N=C/c1cc([N+](=O)[O-])ccc1O)/C(=C\c1cccs1)NC(=O)c1ccccc1
-25%,COc1ccccc1N1CCN(C(=O)CCCN2C(=O)c3cccc4cccc(c34)C2=O)CC1
-6%,CC1(C)Cc2ccccc2-c2nc(CN3CCOCC3)[nH]c(=O)c21
14µM*,CCOC(=O)C1=C(C)N=c2s/c(=C/c3ccco3)c(=O)n2C1c1cccc(OC)c1 (configuration not stated)
-17%,CCC(CC)C(=O)Nc1cc(C(=O)OC)ccc1C(=O)OC
-13%,CC(C)CC(c1nnnn1C(C)C)N1CCN(c2cccc(Cl)c2)CC1 (configuration not stated)
7.1µM*,O=C(C1COc2ccccc2O1)N1CCc2ccccc2C1 (configuration not stated)
0%,Cc1cccc(C)c1N1CCc2cn[nH]c21
-9%,COc1ccc(C2SCC(=O)N2C)cc1 (configuration not stated)
-1%,CCOC(=O)Nc1ccc(S(=O)(=O)NCCCN2CCOCC2)cc1
-19%,CC1=C(C(=O)OCC(C)C)C(c2ccsc2)NC(=O)N1 (configuration not stated)
u,CCN(CC)C(=O)CSC1=Nc2ccccc2C2=NC(c3ccccc3)C(=O)N12 (configuration not stated)
-9%,O=C(O)c1ccc(NC(=O)C2(c3ccccc3)CCOCC2)cc1
-16%,CCn1c(Cc2cccc3ccccc23)nnc1SCC(=O)Nc1nccs1
-3%,COCc1nnc(NC(=O)CCCOc2ccccc2)s1
-22%,Cc1ccc(-c2c3c(nc4sc(C(N)=O)c(N)c24)CCC3)cc1
-11%,Cc1ccc2c(Cl)c(C(=O)NCCCn3ccnc3)sc2c1
-3%,CCOc1ccc(CCNC(=O)C2CCN(S(=O)(=O)N3CCCCC3)CC2)cc1OCC
-9%,COc1cc(NC(=O)Cc2ccccc2OC)cc(OC)c1
-5%,Cc1cc(C)c(C#N)c(Oc2ccc(O)cc2)n1
u,CCc1nc(SCC(=O)c2cccc([N+](=O)[O-])c2)n[nH]1
-9%,CC1=CC(C)(C)N(C(=O)CSc2nnc(-c3ccccc3)o2)c2ccc(C)cc21

Rewritten as labelled records: part of the list above
Molecule: COc1cc(NC(=O)Cc2ccccc2OC)cc(OC)c1
  HPGD block = -9%
Molecule: Cc1cc(C)c(C#N)c(Oc2ccc(O)cc2)n1
  HPGD block = -5%
Molecule: CCc1nc(SCC(=O)c2cccc([N+](=O)[O-])c2)n[nH]1
  HPGD block = u
Molecule: CC1=CC(C)(C)N(C(=O)CSc2nnc(-c3ccccc3)o2)c2ccc(C)cc21
  HPGD block = -9%

An excerpt from above in order of their number in HPGD block, high to low:
HPGD block,SMILES
0%,Cc1cccc(C)c1N1CCc2cn[nH]c21
-3%,COCc1nnc(NC(=O)CCCOc2ccccc2)s1
-5%,Cc1cc(C)c(C#N)c(Oc2ccc(O)cc2)n1
-6%,CC1(C)Cc2ccccc2-c2nc(CN3CCOCC3)[nH]c(=O)c21
-9%,CC1=CC(C)(C)N(C(=O)CSc2nnc(-c3ccccc3)o2)c2ccc(C)cc21
-15%,O=C(N/N=C/c1cc([N+](=O)[O-])ccc1O)/C(=C\c1cccs1)NC(=O)c1ccccc1
-25%,COc1ccccc1N1CCN(C(=O)CCCN2C(=O)c3cccc4cccc(c34)C2=O)CC1

In the list so far, 5 contain a nitro group on carbon.
HPGD block,SMILES
0%,CN(C(=O)COC(=O)c1cc(NS(=O)(=O)c2cc([N+](=O)[O-])ccc2Cl)ccc1O)C1CCCCC1
-14%,O=C(NCc1cccs1)c1ccc([N+](=O)[O-])cc1
-4%,O=C(Nc1ccccc1Cl)c1ccccc1S(=O)(=O)c1ccccc1[N+](=O)[O-]
-15%,O=C(N/N=C/c1cc([N+](=O)[O-])ccc1O)/C(=C\c1cccs1)NC(=O)c1ccccc1
u,CCc1nc(SCC(=O)c2cccc([N+](=O)[O-])c2)n[nH]1

Not all compounds are listed (hit frequency here may not be typical).
